Screens deposited in PubChem by several laboratories.
E coli growth – blocks Escherichia coli growth; OD600, 23 h; hits give low values; OD600 absorbance (concentration not given with the values); 330,000 tested, 0.21% active; AID 1053175;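 active means OD600 absorbance below the run mean of sample wells minus 3.6 SD, in any replicate, cut at about 0.56 in these data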;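 further: stock transfer was 300 nL into about 60 µL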
ALR inh – blocks human ALR sulfhydryl oxidase activity; P55789; 290,000 tested, 3.8% active; AID 485317; purified ALR, DTT oxidation, H2O2 HRP-luminol luminescence; inhibition, % (test concentration not listed);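 active means mean and each replicate at 75% or more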;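 further: stock transfer was 7.5 nL into about 7.5 µL; 0% = neutral wells and 100% = wells with inactivated enzyme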
Target sequence (P55789 whole entry, looked up): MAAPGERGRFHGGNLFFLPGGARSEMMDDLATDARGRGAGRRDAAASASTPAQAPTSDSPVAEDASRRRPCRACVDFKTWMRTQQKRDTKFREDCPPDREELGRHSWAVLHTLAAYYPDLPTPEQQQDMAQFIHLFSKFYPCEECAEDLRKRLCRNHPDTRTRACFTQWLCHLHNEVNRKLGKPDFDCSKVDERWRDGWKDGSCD
HNF4A DNA FP – change in binding of human HNF4 alpha to DNA; 360,000 tested, 0.3% active; HNF4a-FITC DNA binding, fluorescence polarization, 1 h; activity change, % at 10 µM; in the data active means activity change above about 30%, passing the limit was not always enough;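 further: controls were the assay level and a saturating level of protein; the project sought stronger binding though the title names inhibitors; some compounds called inactive have numbers as strong as hits; positive values seem to mean higher polarization but the record does not say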
FGF22 binding – binders of recombinant human FGF22 by thermal shift | SYPRO orange fluorescence; percent of sucrose octasulfate shift, DMSO zero | calls only at 9.99 µM | 340,000 tested, 1.5% active | AID 651658;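 active means melting point raised past a set limit in the mean and every replicate; three in four hits are not shown here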
UCH37 DUB inh – human UCH37 deubiquitinating enzyme inhibition | purified proteasome/UCH37, Ub-AMC cleavage fluorescence | inhibition, % (concentration not given with the values) | 330,000 tested, 0.33% active;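 active means mean of two replicates above 20%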;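 further: 0% = compound-free wells with enzyme and 100% = wells lacking proteasome; stock transfer was 100 nL into about 20 µL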
Target sequence (Q9Y5K5 whole entry, looked up): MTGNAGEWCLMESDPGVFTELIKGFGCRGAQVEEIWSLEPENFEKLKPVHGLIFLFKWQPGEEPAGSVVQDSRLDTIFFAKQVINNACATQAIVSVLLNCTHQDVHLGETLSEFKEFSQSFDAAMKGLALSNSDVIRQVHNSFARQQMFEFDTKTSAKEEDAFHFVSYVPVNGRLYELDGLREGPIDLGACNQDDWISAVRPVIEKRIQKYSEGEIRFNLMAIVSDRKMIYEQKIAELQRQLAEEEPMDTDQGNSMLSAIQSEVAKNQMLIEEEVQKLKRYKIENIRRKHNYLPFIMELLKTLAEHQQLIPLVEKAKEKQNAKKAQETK
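assay system = human UCH37 enzyme supplied as purified proteasome complex | amount = proteasome at 0.15 nM in the dispensed enzyme solution | schedule = 30 min compound-proteasome preincubation then 25 min substrate reaction, room temperature | measured by = fluorescence, ex 355 nm, em 460 nm | benchmarks = no-proteasome wells (full inhibition) and compound-free wells (no inhibition)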
rRNA inh HTS – selective bacterial rRNA inhibition in E. coli. E. coli WT GFP vs humanized-ribosome RFP mutants, fluorescence, 24 h; hits give low values; DMSO median 0, no signal -100. GFP signal change (wild-type ribosome), % (concentration not given with the values). 350,000 tested, 1.6% active. AID 720706;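 active means significant combined selectivity score with lowered wild-type GFP, culture density cut under 30%, mutant RFP and density less affected; inactive means any of these conditions unmet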; further: one replicate is shown; some compounds called inactive have numbers as strong as hits
Beta2AR agonist – activates human beta-2 adrenergic receptor causing internalization; Am2.2-beta2AR cells, FAP receptor internalization, flow cytometry; reference of the scale not given here; AID 504454; 340,000 tested, 0.43% active; response, % (no concentration beside the values); P07550;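 active means response above a set limit, near 3 SD of response in nonfluorescent compounds, cut at about 42% in these data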;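 further: stock transfer was 100 nL into about 11 µL; a reference agonist was the positive control; negative values mostly stem from fluorescent compounds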
Target sequence (P07550 whole entry, looked up): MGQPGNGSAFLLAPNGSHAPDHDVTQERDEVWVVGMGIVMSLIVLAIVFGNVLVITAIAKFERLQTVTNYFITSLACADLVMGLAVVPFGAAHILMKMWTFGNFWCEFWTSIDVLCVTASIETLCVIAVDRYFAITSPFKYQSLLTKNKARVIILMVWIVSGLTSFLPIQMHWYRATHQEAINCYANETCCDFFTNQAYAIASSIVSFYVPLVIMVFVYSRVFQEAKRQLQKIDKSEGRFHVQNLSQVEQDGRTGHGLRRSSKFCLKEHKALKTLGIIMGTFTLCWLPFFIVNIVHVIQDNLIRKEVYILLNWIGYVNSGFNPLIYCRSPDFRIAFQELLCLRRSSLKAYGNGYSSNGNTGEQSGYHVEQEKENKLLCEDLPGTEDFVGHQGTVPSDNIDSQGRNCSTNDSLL
rRNA inh HTS OD600 – also measured in rRNA inh HTS; calls as there; OD600 change, %; measured here: OD600 growth;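 optical density of the mix in the first replicate; 0 = DMSO median and -100 = no signal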
rRNA inh HTS RFP – also measured in rRNA inh HTS; calls as there; RFP signal change, %; measured here: RFP humanized mutant strains;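 first replicate; 0 = DMSO median and -100 = no signal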
Numbers without * were called inactive; i = inactive; . = not tested or not shown.

E coli growth,ALR inh,HNF4A DNA FP,FGF22 binding,UCH37 DUB inh,rRNA inh HTS,rRNA inh HTS OD600,rRNA inh HTS RFP,Beta2AR agonist,smiles
0.68,-4,-1.5,i,3.7,-12,-17,-5.4,-2,Fc1cccc(C2CCCCN2Cc2nc(C3CC3)no2)c1 (stereo unspecified)
0.69,0,1.4,i,6.0,6,14,-1.7,-1,CCOC(=O)CCn1c(=S)n(CCC(=O)OCC)c2ccccc21
0.76,-2,1.7,.,5.6,.,.,.,4,COC(=O)c1ccc(Oc2nc(NC(C)C)nc(SC)n2)cc1
0.68,3,-1.1,i,5.1,1,0,1.9,-5,CCN(CC)C(=O)COc1coc(CN2CCN(c3cccc(Cl)c3)CC2)cc1=O
0.7,7,2.9,.,2.5,.,.,.,-2,O=C1CC(c2ccccc2Cl)C2=C(COC2=O)N1 (stereo unspecified)
0.7,-3,-1.6,i,5.9,11,10,-5.9,-5,COc1c([N+](=O)[O-])c(=O)oc2ccccc12
.,-4,5.8,i,0.0,-33,-47,-3.9,-6,C#CCNC(=O)C1=C[C@H](C2CCCCC2)C[C@H](OCc2ccc(CO)cc2)O1
0.69,0,-3.4,i,-2.1,-6,1,-1.4,2,Cc1cc(S(=O)(=O)N2CCCC2)ccc1OCC(=O)Nc1ccc(C(N)=O)cc1
0.71,-9,2.2,i,-1.1,-3,0,0.8,-6,COc1cccc(NC(=O)Cn2c(=O)n(C)c(=O)c3sc4c(c32)COC(C)(C)C4)c1
0.69,97*,-12,.,-1.8,.,.,.,8,CC(=O)c1c(C)oc(C)c1CSCc1ccc(C(=O)O)o1
0.74,.,2.5,.,0.9,.,.,.,-3,CCC(C)(C)NC(=O)C(c1cccnc1)N(CCOC)C(=O)Cn1nnc2ccccc21 (stereo unspecified)
0.81,.,2.8,i,0.3,-2,-8,-3.3,-12,O=C(Nc1ccccc1)C1=C[C@@H](C2CCCCC2)C[C@@H](OCCCCO)O1
0.73,4,-1.2,i,-37,5,1,8.0,7,CCOc1ccc2nc(NCCCNS(=O)(=O)c3ccc(C)cc3)c(C#N)cc2c1
0.68,16,2.6,.,3.2,.,.,.,8,Cc1ccc(Cl)cc1N1CCN(c2cccc[n+]2C)CC1
0.66,-11,-5.7,i,-0.7,18,13,3.0,-6,CN(C(=O)COC(=O)c1ccc2ccccc2n1)C1CCS(=O)(=O)C1 (stereo unspecified)
0.71,4,-0.7,i,2.9,11,5,1.6,2,CC(NC(=O)CCc1nnc(Cc2cccc(C(F)(F)F)c2)o1)C1CC1 (stereo unspecified)
.,-55,-2.2,i,.,-2,-4,-3.0,-5,Cc1no[n+]([O-])c1COc1cccc(/C=N/Nc2nncn2N)c1
0.66,-2,-0.2,i,1.7,-15,-6,0.8,-1,O=C(O)C1CC=CCC1C(=O)NCc1ccc(Cl)c(Cl)c1 (stereo unspecified)
0.74,3,-1.3,.,1.8,.,.,.,6,Cc1ccc(NC(=O)c2cnn(-c3ccccc3)c2NC(=O)c2ccco2)cc1C
0.66,3,1.7,i,-3.0,.,.,.,-18,O=C(c1cn(-c2ccccc2)nc1-c1ccc(Br)cc1)N1CCOCC1
0.68,-3,0.9,i,3.4,-9,-13,6.4,-1,O=C(COC(=O)C1CCN(S(=O)(=O)c2c(Cl)cccc2Cl)CC1)NCc1ccco1
0.73,0,4.3,.,-1.3,.,.,.,-2,COc1ccc(/C=C/c2noc(-c3ccccc3O)n2)cc1
0.68,85*,-5.6,i,3.7,4,2,1.1,3,CNC(=S)NNc1nc(N2CCOCC2)nc(N2CCOCC2)n1
.,-5,1.2,i,1.4,2,-7,-2.4,-1,CC(C)(C)[C@H]1COC(=O)CC/C=C\C[C@@H](CC(=O)N(CCO)Cc2ccccc2)C(=O)N1
.,.,-0.1,i,.,2,6,-1.5,.,CC[C@@H]1CC2=C(C(=O)OC(C)(C)O2)[C@H](c2ccc(F)cc2)O1
.,-22,0.7,.,.,.,.,.,11,C=CCNCCCCOc1ccc(Br)cc1C
0.7,-2,-1.0,i,2.6,10,17,1.8,3,COc1cc(OC)nc(NC(=O)C(C)C)n1
0.64,1,2.9,i,6.2,9,-4,-0.4,0,COc1ccc(OCC(O)CN2CCN(c3ccc(Cl)cc3)CC2)cc1 (stereo unspecified)
0.68,.,5.2,i,2.3,.,.,.,1,CC(=O)Nc1ccc(C(F)(F)F)cc1Cl
0.68,2,-1.1,.,3.0,.,.,.,11,COc1ccc(C(=O)Nn2c(SCC(=O)NC3CCCC3)nc3ccccc3c2=O)cc1
0.71,-2,0.4,.,-7.9,.,.,.,-9,Cc1ccccc1/C=C1\Sc2ccc(C(=O)N3CCN(c4ccccn4)CC3)cc2N(C)C1=O
0.77,.,-0.2,.,2.1,.,.,.,-4,CCOC(=O)c1csc(NC(=O)c2ccc(S(=O)(=O)N(CC)CC)cc2)n1
0.71,-5,1.7,.,3.0,.,.,.,-4,COc1ccc(-n2c(C)nn(C)c2=O)c(OC)c1
0.64,-19,3.7,i,1.5,-41*,8.7*,-3.7*,-1,O=C(CCC(=O)c1ccc(F)cc1)Nc1cccc(S(=O)(=O)Nc2cccc(Cl)c2)c1
0.71,.,0.1,.,-1.7,-4,4,2.8,2,COC(=O)c1c(C)[nH]c(C(=O)NCc2ccco2)c1C
0.67,22,-0.2,i,2.3,-19,-26,-7.3,-6,O=C(NC(CC(=O)N1CCN(c2ccccc2)CC1)c1ccccc1)c1ccccc1Cl (stereo unspecified)
.,.,-1.0,i,.,8,6,0.9,.,O=C(CN1CCOCC1)NN=Cc1ccc([N+](=O)[O-])o1
0.69,-2,4.7,i,1.4,-4,-14,3.1,19,O=C(CN1CCN(S(=O)(=O)N2CCOCC2)CC1)Nc1cc(Cl)cc(Cl)c1
0.66,2,-1.0,.,-4.3,.,.,.,-14,CCN(CC)S(=O)(=O)c1ccc(Cl)c(NC(=O)CSc2nnc(-c3cccs3)o2)c1
.,.,2.8,i,.,15,22,2.3,.,CCN(CC)C(=O)c1ccc2sc([C@H]3C[C@H](O)[C@@H](CO)O3)nc2c1
0.7,-2,-4.2,i,-0.2,-14,-14,-6.0,22,Cc1cc2oc3ccc(NCCC4CCCN4C)cc3c(=O)c2cc1C (stereo unspecified)
.,.,0.5,i,.,-1,7,0.0,.,Cc1cccc(C)c1NC(=O)C1(C)CSCC(=O)N1CCc1ccccc1 (stereo unspecified)
0.74,3,0.7,.,-0.1,.,.,.,4,CCCC(=O)N1CCN(S(=O)(=O)c2cc(Cl)ccc2OC)CC1
0.69,.,-2.1,.,0.5,9,15,1.8,-1,CCN(C(=O)CSc1nc2ccccc2c(=O)n1C(C)COC)C1CCS(=O)(=O)C1 (stereo unspecified)
0.72,-2,0.7,.,3.2,.,.,.,5,CS/C(=N\S(=O)(=O)c1cccs1)Nc1ccc(F)cc1
0.7,-2,0.4,i,-2.9,7,8,-9.1,6,COc1c(F)c(F)c(C(=O)Nc2ccc(-c3nc4ccccc4[nH]3)cc2)c(F)c1F
0.64,16,1.3,.,2.8,.,.,.,-7,O=C(CSc1ncn(-c2ccccc2)n1)Nc1nc2ccccc2s1
0.64,-2,-4.4,i,2.9,9,3,2.9,0,CC(C)OC(=O)CSc1nnc(-c2ccc([N+](=O)[O-])cc2)o1
.,.,0.0,i,.,-31,-75,-24,.,COc1cccc(-c2ncn(CCc3ccccc3OC)c2C(C)C)c1
0.69,3,1.8,i,5.3,-22*,-15*,0.8*,7,COCCNC(=S)N(CCc1c(C)[nH]c2ccc(Cl)cc12)Cc1cccs1
0.75,.,2.9,.,5.2,.,.,.,1,Cn1cc(CC(=O)Nc2cccc(C#N)c2)c2ccccc21
0.66,.,2.2,i,2.3,0,9,-3.2,-4,Cc1c(NC(=O)c2cccc(NC(=O)COc3ccccc3)c2)c(=O)n(-c2ccccc2)n1C
0.74,2,-0.5,.,-3.4,.,.,.,4,Cc1cc(OCc2nc(-c3ccc(NC(=O)c4cccnc4)cc3)no2)ccc1Cl
0.66,-1,-1.1,i,5.6,-35*,-25*,-7.5*,-6,CC(C)COc1ccc(C(=O)NC(Cc2c[nH]c3ccccc23)C(=O)NN)cc1 (stereo unspecified)
0.68,-3,-4.1,i,3.5,22,24,4.7,2,CSc1ccc(NC(=O)C(C)N2CCN(C)CC2)cc1 (stereo unspecified)
0.68,.,-0.8,.,2.8,-6,2,3.5,7,O=C(Cc1ccc(NC(=O)C2CCN(C(=O)C3CCCC3)CC2)cc1)Nc1cccc(C(=O)N2CCCCC2)c1
0.67,-1,1.0,i,-1.2,6,7,-0.6,4,O=C(Nn1cnc2ccccc2c1=O)c1ccccc1F
0.65,0,0.8,i,7.9,-6,-7,-4.3,-7,COc1ccc(-n2c(=O)[nH]cc(C(=O)Nc3ccc4c(c3)OCCO4)c2=O)cc1OC
0.61,-1,-4.5,.,3.1,.,.,.,0,COc1cccc(NC(=O)c2ccc3snnc3c2)c1
0.67,24,-0.2,.,-0.7,.,.,.,4,COc1ccc(-c2ncncc2-c2csc(C)n2)c(O)c1

ALR inh: entries above that show a hit.
E coli growth,ALR inh,HNF4A DNA FP,FGF22 binding,UCH37 DUB inh,rRNA inh HTS,rRNA inh HTS OD600,rRNA inh HTS RFP,Beta2AR agonist,smiles
0.69,97*,-12,.,-1.8,.,.,.,8,CC(=O)c1c(C)oc(C)c1CSCc1ccc(C(=O)O)o1
0.68,85*,-5.6,i,3.7,4,2,1.1,3,CNC(=S)NNc1nc(N2CCOCC2)nc(N2CCOCC2)n1

Sorted by count of non-hydrogen atoms (rising): part of the list above.
E coli growth,ALR inh,HNF4A DNA FP,FGF22 binding,UCH37 DUB inh,rRNA inh HTS,rRNA inh HTS OD600,rRNA inh HTS RFP,Beta2AR agonist,smiles
0.67,24,-0.2,.,-0.7,.,.,.,4,COc1ccc(-c2ncncc2-c2csc(C)n2)c(O)c1
0.74,3,0.7,.,-0.1,.,.,.,4,CCCC(=O)N1CCN(S(=O)(=O)c2cc(Cl)ccc2OC)CC1
.,.,0.0,i,.,-31,-75,-24,.,COc1cccc(-c2ncn(CCc3ccccc3OC)c2C(C)C)c1
0.65,0,0.8,i,7.9,-6,-7,-4.3,-7,COc1ccc(-n2c(=O)[nH]cc(C(=O)Nc3ccc4c(c3)OCCO4)c2=O)cc1OC

Other records.
E coli growth,ALR inh,HNF4A DNA FP,FGF22 binding,UCH37 DUB inh,rRNA inh HTS,rRNA inh HTS OD600,rRNA inh HTS RFP,Beta2AR agonist,smiles
.,.,-1.1,i,.,3,-6,-7.8,.,CN(CCc1ccccc1)c1cc2c(c3c1ccn3C)C1CCC2C1 (stereo unspecified)
0.73,-6,0.4,.,-0.7,.,.,.,3,COc1ccc(CN(Cc2ccccn2)C(=O)CN2C(=O)C(C)Oc3ccccc32)cc1 (stereo unspecified)
0.67,-7,1.0,i,4.3,12,17,1.4,7,O=S(=O)(NCC1CCCO1)c1ccc(S(=O)(=O)N2CCCC2)cc1 (stereo unspecified)
0.7,.,4.9,i,1.4,-6,-30,7.0,2,CCN(CC)c1ccc(S(=O)(=O)N2CCOCC2)cc1NC(=O)CNCc1cccc(Cl)c1
.,.,4.4,i,.,8,7,-0.1,.,Cn1c(N)c(C#N)c(-c2ccccc2)c(C#N)c1=O
0.66,-5,2.9,i,5.7,0,-2,-1.4,6,O=C(NCc1ccccc1)C1CCCN1S(=O)(=O)c1ccc(F)cc1 (stereo unspecified)
0.66,.,-6.1,i,i,15,10,1.2,-1,Cc1cccn2c(=O)c3cc(C(=O)NCCN4CCOCC4)c(=N)n(Cc4cccnc4)c3nc12

Not all compounds are listed, so the mix of outcomes need not match the whole.
